CtBP-E1A inh = qHTS Assay for Inhibitors of the CtBP/E1A Interaction; CtBP / adenovirus E1A interaction (AlphaScreen); AlphaScreen GST-E1A/His-CtBP binding, 1536-well; hits give low values; control for the full effect not named in the record; activity change, % (no concentration beside the values); 340,000 compounds, 0.49% hits; in the data active means activity change below about -65%; inconclusive means about -30% to -65%; inactive means above about -30%; further: on the % scale 0 is the no-effect control and ±100 the full control effect
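AlphaScreen with 125 nM GST-E1A and 125 nM His-CtBP (5X stocks) in Tris pH 8.0, 300 mM NaCl, BSA, Tween 20, TCEP. Compounds preincubated 2 h at 37 deg C, then glutathione donor/nickel acceptor beads added for 1 h at 37 deg C in dark.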
D2 potentiator = Beta-Arrestin HTS for Positive Allosteric Modulators of the Human D2 Dopamine Receptor: Potentiators. DiscoveRx D2 beta-arrestin cells, luminescence, 90 min; 100% = 57 uM dopamine signal. 360,000 compounds, 0.23% hits. AID 624464, 2012. potentiation, % (test concentration not listed). D(2) dopamine receptor (Homo sapiens), P14416; active = potentiation of 50% or more; inconclusive = 30% to 50%; inactive = 30% or less;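 further: compound concentration not given in the record; tested on top of an EC20 dose of dopamine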
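PathHunter D2 cells, attached overnight at 37 deg C, received compound in DMSO plus dopamine at EC20 (50 nM final) for 90 min at 37 deg C. Beta-arrestin recruitment was read as luminescence after 1 h with detection reagent at ambient temperature.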
D2 ag = Beta-Arrestin HTS for Positive Allosteric Modulators of the Human D2 Dopamine Receptor: Agonists | DiscoveRx PathHunter D2 beta-arrestin, luminescence, 90 min; 100% = 57 uM dopamine signal | activation, % (test concentration not listed) | 360,000 compounds, 0.084% hits; in the data active = activation above about 40%; inconclusive = about 15% to 40%; inactive = below about 15%; further: compound concentration not given in the record; the text of the record calls up to 30% inactive
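DiscoveRx PathHunter D2 beta-arrestin cells (2,100/well) attached overnight, then compound-stimulated 90 min at 37 C in HBSS/10 mM HEPES/0.1% Tween-20 buffer; beta-galactosidase complementation read by luminescence after 1 h at ambient temperature. Dopamine 57 uM final (EC100) as control.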
TRPV1 potentiator = HTS Assay for Compounds that Act as Potentiators of the Vanilloid Receptor 1 | TRPV1-expressing cells, Fluo-8 calcium influx, capsaicin EC20 potentiation; host cell line not named in the record; control for the full effect not named in the record | 320,000 compounds, 0.02% hits | AID 540277, 2011 | potentiation, % at 8.33 µM; active means potentiation above 80%; inconclusive means 30% to 80%; inactive means below 30%; further: 0% is about no effect
Target sequence (Q8NER1 whole entry, looked up): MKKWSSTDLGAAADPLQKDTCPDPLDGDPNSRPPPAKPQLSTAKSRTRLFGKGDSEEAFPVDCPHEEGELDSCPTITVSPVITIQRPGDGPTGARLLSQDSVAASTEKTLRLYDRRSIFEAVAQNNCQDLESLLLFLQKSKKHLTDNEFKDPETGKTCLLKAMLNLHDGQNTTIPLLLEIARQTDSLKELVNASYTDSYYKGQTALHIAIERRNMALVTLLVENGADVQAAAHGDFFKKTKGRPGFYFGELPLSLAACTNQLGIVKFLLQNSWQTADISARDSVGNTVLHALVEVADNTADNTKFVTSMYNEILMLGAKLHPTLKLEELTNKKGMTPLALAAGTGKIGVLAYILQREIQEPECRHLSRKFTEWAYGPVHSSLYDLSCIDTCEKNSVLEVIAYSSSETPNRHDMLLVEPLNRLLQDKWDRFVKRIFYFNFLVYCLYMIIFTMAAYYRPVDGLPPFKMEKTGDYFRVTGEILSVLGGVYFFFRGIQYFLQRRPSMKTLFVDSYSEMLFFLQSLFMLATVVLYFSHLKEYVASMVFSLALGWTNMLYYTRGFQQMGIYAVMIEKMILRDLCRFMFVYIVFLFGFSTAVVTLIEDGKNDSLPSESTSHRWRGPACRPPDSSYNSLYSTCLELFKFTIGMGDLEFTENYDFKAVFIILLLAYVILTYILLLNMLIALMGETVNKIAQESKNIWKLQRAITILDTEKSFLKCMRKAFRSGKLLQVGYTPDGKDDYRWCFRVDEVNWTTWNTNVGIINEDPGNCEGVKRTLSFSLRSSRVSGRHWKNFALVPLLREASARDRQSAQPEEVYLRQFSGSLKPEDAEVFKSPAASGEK
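Fluo-8 calcium influx in TRPV1-expressing cells, kinetic read (ex 480/em 520 nm). Compound added and read 3 min for agonist activity, followed by capsaicin at EC20 final and 2 min further read for enhancement.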
PINK1 modulator = A Quantitative High throughput Screen to Identify Chemical Modulators of PINK1 Expression; PINK1 immunofluorescence, high-content cytometry, 24 h; Potency, µM (highest dose often 76.6 µM), for inactives: at the highest dose activation (PINK1 increase), usual class: activators; 410,000 compounds, 0.2% hits; AID 624263, 2012; active = well fitted activation curve with a large enough effect; inconclusive = small, poorly fitted or top-dose-only effect; inactive = flat fitted curve, though single readings scatter; cell line not stated here;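 further: potency means the concentration at half of the fitted maximal effect; % of control where 0% means no effect; nearly all actives have a fitted effect of over 65% in size; a mitochondrial uncoupler was the plate control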
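Stable cell line treated 24 h with compounds at 5 concentrations (CCCP controls), then fixed and immunostained for PINK1 plus nuclear and cell stains; PINK1 immunofluorescence quantified by laser-scanning microplate cytometry.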
Sfp PPTase inh = qHTS Assay for Inhibitors of Bacillus subtilis Sfp phosphopantetheinyl transferase (PPTase). 4'-phosphopantetheinyl transferase ffp (Bacillus subtilis), Q9F4F7. AID 1490, 2009. 310,000 compounds, 3.5% hits. Biochemical Sfp PPTase activity, qHTS. Potency, µM, without a hit: max response, negative = inhibition, usual class: inhibitors; active means well fitted inhibition curve with a large enough effect; inconclusive means small, poorly fitted or top-dose-only effect, or another doubt; inactive means no such curve, though single readings can be large or run the other way;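 further: the enzyme is Sfp with the accession as filed and its product quenches rhodamine fluorescence; potency means the concentration at half of the fitted maximal effect; 0% = enzyme reaction without inhibitor and -100% = no enzyme wells; top concentration of the series not given in the record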
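After 15 min at room temperature with compound, 15 nM Sfp received 5 uM rhodamine-CoA plus 12.5 uM BHQ-2-ybbR (50 mM Hepes pH 7.6, 10 mM MgCl2). Rate came from the fluorescence difference over 30 min, ex 525/em 598 nm.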
Six1-Eya2 blk = qHTS Assay for Inhibitors of the Six1/Eya2 Interaction; Homeobox protein SIX1 (Homo sapiens) + Protein phosphatase EYA2 (Homo sapiens), …; AlphaScreen GST-Six1/His-Eya2 binding, biochemical; hits give low values; control for the full effect not named in the record; activity change, % (no concentration beside the values); 360,000 compounds, 0.56% hits; AID 651725, 2012; in the data active = activity change below about -65%; inconclusive = about -30% to -65%; inactive = above about -30%; further: on the % scale 0 is the no-effect control and ±100 the full control effect
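Homogeneous AlphaScreen proximity assay pairing GST-Six1 with His-tagged Eya2 (added as 5X mix: 250 nM and 500 nM) in 50 mM Tris pH 8.0, 300 mM NaCl, 1 mM TCEP. Glutathione donor and nickel acceptor beads; 1 h, 37 °C, dark.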
* marks the source's active call; other numbers are inactive results; ? = inconclusive; · = not tested or not shown; & = joins results of further samples; [ ] = remark or other dose. The order is random (roughly 3.7% active in at least one column).

SMILES	CtBP-E1A inh	D2 potentiator	D2 ag	TRPV1 potentiator	PINK1 modulator	Sfp PPTase inh	Six1-Eya2 blk
CCc1c(C)[nH]n(-c2nc(-c3cccc([N+](=O)[O-])c3)cs2)c1=O	-5	-4	-8.1	-21	1.6%	-15%	-17
O=[N+]([O-])c1ccc(-c2cn(-c3ccccc3)c(=S)[nH]2)cc1	16	8	-4.7	-2	0.4%	-11%	3
COc1cc2[nH]c(=S)nc(NCc3ccc(C)cc3)c2cc1OC	·	-11	1.3	1	5.6%	-10%	-74*
COc1ccccc1Nc1ccncc1[N+](=O)[O-]	·	-4	1.1	-20	-0.3%	9%	-21
CNC(=O)c1ccc(CNC(=O)OCc2ccccc2)cc1	2	-17	0.3	7	0.1%	5%	4
O=C(N/N=C/c1ccc2c(c1)OCO2)C(=O)N1CCCC1	8	1	0.4	6	4.8%	25%	-4
O=C(N/N=C/C=C/c1ccco1)c1cccnc1	-11	0	-1.2	3	1.4%[38.3 µM]	35µM*	-9
C=CCNc1cc(=O)n(Cc2ccccc2)c(=O)[nH]1	14	-4	-1.7	·	1.5%	·	10
O=C(Cc1ccccc1)Nc1ccccc1C(=O)Nc1ccccc1	0	0	-2.6	-12	-0.4%	-3%	17
C[C@@H]1CN([C@H](C)CO)C(=O)CCCn2nncc2CO[C@@H]1CN(C)S(=O)(=O)c1ccc(Cl)cc1	-12	-3	-7.3	·	-0.6%	·	-20
O=C(Nc1ccccc1)OC1CC2CC1C1CCCC21 (centres undefined)	21	0	-1.7	7	19%	-1%	12
Cc1ccccc1OCCCC(=O)Nc1nncs1	·	0	-1.0	-13	3.9%	-1%	20
Cc1nc(Cc2nnc(SCC(=O)N3c4ccccc4NC(=O)C3(C)C)o2)cs1	-13	-15	-4.8	·	1.1%	·	-1
C=CCn1nc(C(=O)N2CCOCC2)cc1-c1sc(NC(=O)c2ccccc2)nc1C	-12	1	-0.2	·	5.1%	·	-5
CC1(C)CC2CC(C)(CN2C(=O)c2cc(-c3ccccc3)on2)C1 (centres undefined)	6	-8	-0.7	-11	14%	-7%	-5
CC(=O)Nc1ccc(S(=O)(=O)N[C@@H](C)C(=O)N2CCN(c3ccccn3)CC2)cc1	0	-3	0.0	·	0.3%	·	4
COc1ccc(C)cc1N1CC(C(=O)Nc2ccccc2N2CCCCC2)CC1=O (centres undefined)	4	-11	1.1	-2	1.1%	·	-6
COc1ccc(C2CC(C(F)(F)F)n3nc(C(=O)Nc4ccc5c(c4)OCO5)cc3N2)cc1 (centres undefined)	9	15	1.0	-19	8.6%	-22%	0
O=C(CSc1cccc[n+]1[O-])Nc1ccccc1C(F)(F)F	-20	-7	-2.1	·	-1.0%	·	-15
CC(=O)c1ccccc1NC(=O)COC(=O)/C=C/c1ccc(C)o1	4	-28	-1.7	-1	3.0%	?	3
CCC1CCCCN1CC(C)(C)NS(=O)(=O)c1ccccc1 (centres undefined)	5	-10	-4.3	-51	0.1%	16%	6
O=C(NNC(=O)c1ccncc1)c1ccncc1	13	-10	-2.6	9	21%[38.3 µM]	0%	5
Cc1ccc(OCCNC(=O)c2ccco2)cc1C	2	9	-0.3	-9	0.1%	5%	1
Cc1ccc(NC(=O)CC(C(=O)O)c2ccccc2)cc1 (centres undefined)	0	-10	-1.0	13	0.3%	21%	8
COC(=O)Nc1csc2c1NC(=O)CCCC2	0	1	-5.8	7	0.6%	-6%	-1
Cn1nc(C(=O)NCc2ccc(Cl)cc2)c2c1-c1ccccc1S(=O)(=O)C2	·	-15	-9.8	17	-1.1%&2.9%	-3%	15
O=C(N=NC(=O)c1ccc2c(O)n(CC3CCCO3)c(O)c2c1)c1cccnc1 (centres undefined)	6	-3	-1.5	-2	-0.4%	26%	2
CCCCNC(=O)c1ccc(CS(=O)(=O)c2cccc(C(F)(F)F)c2)o1	0	-15	0.0	-6	-1.5%	3%	27
CCN1CCN(C2=C(NS(=O)(=O)c3ccc(C)cc3)C(=O)c3ccccc3C2=O)CC1	-16	-24	2.7	0	-0.9%	-2%	-18
CCS(=O)(=O)N1Cc2ccccc2CC1C(=O)OCC(=O)Nc1ccc(SC(F)F)cc1 (centres undefined)	0	8	0.0	1	-1.6%	14%	15
O=C(Nc1ccccc1)N1CCC(C(=O)N2CCN(Cc3ccccc3)CC2)CC1	7	-23	-3.0	-6	1.4%	·	6
COc1cc(OC)c(OC)cc1/C=N/NC(=O)c1cnccn1	0	3	1.5	1	-2.0%	-21%	-7
O=C(NC(=S)Nc1ccc(Cl)cc1)c1cncc(Br)c1	6	0	4.5	·	12%	·	5
CC(C)(C(=O)N1CCC1(C)C(=O)Nc1ccccc1Br)c1ccccc1 (centres undefined)	0	-1	-2.5	·	2.9%	·	2
COc1ccc(C2=NN(CCC(=O)NCC3CCCO3)C(=O)CC2)cc1 (centres undefined)	10	-5	-1.1	0	0.8%	14%	1
CCC(C)NC(=O)C1CC(c2cccc(OC)c2)=NO1 (centres undefined)	7	-16	-4.6	0	5.7%[38.3 µM]	18%	4

Another view of some results above.
| compound | CtBP-E1A inh | D2 potentiator | D2 ag | TRPV1 potentiator | PINK1 modulator | Sfp PPTase inh | Six1-Eya2 blk |
| --- | --- | --- | --- | --- | --- | --- | --- |
| Cc1ccc(OCCNC(=O)c2ccco2)cc1C | 2 | 9 | -0.3 | -9 | 0.1% | 5% | 1 |
| Cc1ccc(NC(=O)CC(C(=O)O)c2ccccc2)cc1 (centres undefined) | 0 | -10 | -1.0 | 13 | 0.3% | 21% | 8 |
| COC(=O)Nc1csc2c1NC(=O)CCCC2 | 0 | 1 | -5.8 | 7 | 0.6% | -6% | -1 |
| Cn1nc(C(=O)NCc2ccc(Cl)cc2)c2c1-c1ccccc1S(=O)(=O)C2 | · | -15 | -9.8 | 17 | -1.1%&2.9% | -3% | 15 |
| O=C(N=NC(=O)c1ccc2c(O)n(CC3CCCO3)c(O)c2c1)c1cccnc1 (centres undefined) | 6 | -3 | -1.5 | -2 | -0.4% | 26% | 2 |
| CCCCNC(=O)c1ccc(CS(=O)(=O)c2cccc(C(F)(F)F)c2)o1 | 0 | -15 | 0.0 | -6 | -1.5% | 3% | 27 |
| CCN1CCN(C2=C(NS(=O)(=O)c3ccc(C)cc3)C(=O)c3ccccc3C2=O)CC1 | -16 | -24 | 2.7 | 0 | -0.9% | -2% | -18 |
| CCS(=O)(=O)N1Cc2ccccc2CC1C(=O)OCC(=O)Nc1ccc(SC(F)F)cc1 (centres undefined) | 0 | 8 | 0.0 | 1 | -1.6% | 14% | 15 |
| O=C(Nc1ccccc1)N1CCC(C(=O)N2CCN(Cc3ccccc3)CC2)CC1 | 7 | -23 | -3.0 | -6 | 1.4% | · | 6 |
| COc1cc(OC)c(OC)cc1/C=N/NC(=O)c1cnccn1 | 0 | 3 | 1.5 | 1 | -2.0% | -21% | -7 |
| O=C(NC(=S)Nc1ccc(Cl)cc1)c1cncc(Br)c1 | 6 | 0 | 4.5 | · | 12% | · | 5 |

The list goes on.
SMILES	CtBP-E1A inh	D2 potentiator	D2 ag	TRPV1 potentiator	PINK1 modulator	Sfp PPTase inh	Six1-Eya2 blk
COc1cccc(CCc2nnc(CCC(=O)N(C)C3CC(C)(C)NC(C)(C)C3)o2)c1	0	-3	-1.5	-1	-0.2%	6%	3
CCOCCCNC(=O)/C(C#N)=C/c1ccc(Cl)c([N+](=O)[O-])c1	4	0	2.1	-6	-1.3%	6%	-6
CC(C)CC(=O)Nc1ccccc1N1CCN(c2ccccc2)CC1	-8	-10	5.3	-11	1.5%	3%	-7
COc1ccc(N2CCN(C(=O)C(C)(C)Oc3ccc(Cl)cc3)CC2)cc1	?	0	-0.3	-15	5.0%	?	?
Nc1nc(N)nc(-c2ccccc2)n1	2	-8	-2.5	-6	0.6%	19%	1
CCOc1ccc(C2Nc3ccc4ccccc4c3-c3c2c(=O)oc2ccccc32)cc1 (centres undefined)	11	-9	0.6	-6	4.5%[38.3 µM]	18%	12
NC(=O)c1ccccc1OCc1cccc2ccccc12	1	-12	2.7	9	-1.0%	0%	-5
O=c1[nH]c(C2CCCN(S(=O)(=O)c3ccc(F)cc3)C2)nc2c1nnn2Cc1ccc(F)cc1 (centres undefined)	3	-3	-0.2	0	0.8%	-1%	9
CC1Sc2ccc(S(=O)(=O)N3CCC(C(=O)NCCc4ccccc4)CC3)cc2NC1=O (centres undefined)	5	-3	-0.6	16	-0.7%	6%	4
CN1CCC(NC(=O)Nc2cccc(C(F)(F)F)c2)CC1	·	-8	-3.0	2	-0.1%	9%	10
O=C(O)CCc1ccc(S(=O)(=O)Nc2ccccc2C(=O)NCCc2ccccc2)cc1	3	-1	1.1	3	-0.1%	15%	6
O=C(c1cc(-c2ccc(Br)cc2)nc2ccccc12)N1CCN(c2ccccc2O)CC1	-19	11	2.9	4	-2.9%	·	-6
CCCNC(=O)C(Cc1ccccc1)NC(=O)Cc1ccccc1 (centres undefined)	·	-7	0.6	25	-0.6%	·	18
Fc1ccccc1OCCCCSc1ncccn1	21	-10	-2.0	-15	0.8%	11%	22
O=C(NC(Cc1c[nH]c2ccccc12)C(=O)O)/C(=C/c1ccc2c(c1)OCO2)NC(=O)c1ccccc1 (centres undefined)	-4	-2	-4.3	-4	-0.7%	18%	-7
CCOC(=O)COc1c(Cl)cc(C2NC(=S)NC(c3ccccc3)=C2C(C)=O)cc1OC (centres undefined)	-17	1	-0.2	18	5.4%	-5%	-16
COc1ccc(C2C(C#N)=C(C)NC(C)=C2C(=O)OC(C)C)c(OC)c1 (centres undefined)	33	-1	-1.6	-10	2.4%	7%	-7
CCn1ncc(C(=O)Nc2ccccc2C)c1C	12	15	3.5	-6	0.9%	8%	9
C/C(=N\O)C(C)(C)Nc1ccc(F)cc1	0	-8	-3.9	2	-0.8%	12%	-9

High-throughput results: PubChem, National Center for Advancing Translational Sciences (NCATS)
